# High-throughput results (PubChem)
# CBFb-RUNX1 inh – CBF-beta/RUNX1 interaction disruption | Potency, µM (highest dose often 59.8 µM), without a hit: at the top dose activity, negative = inhibition, hits mostly inhibitors | 230,000 tested, under 10 active | AID 1477 | Q01196+Q13951 | AlphaScreen CBFb-His/RUNX1-biotin binding, biochemical; note: % of control where 0% means no effect
# Target sequence (Q01196 whole entry, looked up): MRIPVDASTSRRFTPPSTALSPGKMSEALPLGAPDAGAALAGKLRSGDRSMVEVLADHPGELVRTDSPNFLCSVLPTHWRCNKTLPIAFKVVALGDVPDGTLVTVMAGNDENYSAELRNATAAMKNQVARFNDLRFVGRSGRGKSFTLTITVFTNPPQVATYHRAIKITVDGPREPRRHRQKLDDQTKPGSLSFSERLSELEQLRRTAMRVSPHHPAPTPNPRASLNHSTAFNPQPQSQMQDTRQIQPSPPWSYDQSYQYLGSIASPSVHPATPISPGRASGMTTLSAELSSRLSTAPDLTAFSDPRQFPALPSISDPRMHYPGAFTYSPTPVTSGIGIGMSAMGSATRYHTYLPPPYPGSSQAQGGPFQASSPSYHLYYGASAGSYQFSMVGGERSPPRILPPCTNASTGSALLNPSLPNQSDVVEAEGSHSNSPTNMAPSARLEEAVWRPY
# Target sequence (Q13951 whole entry, looked up): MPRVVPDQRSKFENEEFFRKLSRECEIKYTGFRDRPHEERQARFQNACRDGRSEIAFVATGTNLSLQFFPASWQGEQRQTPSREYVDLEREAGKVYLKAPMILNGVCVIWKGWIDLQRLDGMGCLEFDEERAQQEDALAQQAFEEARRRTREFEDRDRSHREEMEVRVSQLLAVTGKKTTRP
#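 Read-out: AlphaScreen. Format: His-CBF-beta with biotinylated RUNX1 (30 nM each) preincubated 20 min, compound 15 min, Ni-chelate plus streptavidin beads 90 min; room temperature throughout.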
# GLA spleen mod – inhibitors or activators of human alpha-galactosidase in spleen homogenate; actives 0.008% (n = 240,000); human spleen homogenate, 4MU-alpha-Gal fluorescence, 40 min; P06280; Potency, µM (doses to about 80 µM), inactives show at the top dose activity change, negative = inhibition, hits mostly inhibitors;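 note: potency is the fitted concentration of half-maximal effect; 0% = enzyme with vehicle and -100% = no enzyme basal signal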
#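 Human spleen homogenate (1 ug) as enzyme source, 4-methylumbelliferyl-alpha-D-galactopyranoside 1 mM final, citrate/phosphate pH 5.0 with 0.01% Tween-20. Compounds 40 min at 37C, NaOH/glycine stop; fluorescence Ex 365/Em 440, Hill-fit AC50.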
# Luc counter – blocks Kinase-Glo luciferase, a counter-screen artifact; Q27757; actives 0.28% (n = 200,000); Potency, µM (highest dose often 38.3 µM), without a hit: at the top dose activity change, negative = inhibition, hits mostly inhibitors; AID 1379; Kinase-Glo luciferase, ATP luminescence, 8 min; note: potency is the fitted concentration of half-maximal effect; % is set by controls: 0 for no effect and ±100 for the full control effect; nearly all actives have a fitted effect of over 60% in size
#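 Inhibition of Kinase-Glo luciferase light generation was assessed at 10 uM ATP in pH 7.2 imidazole buffer, with luminescence measured after eight minutes at ambient temperature.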
# Epigenetic derep – regulators of epigenetic silencing causing reporter derepression in mouse cells. AID 1865. murine LDR cells, GFP reporter derepression, 30 h. actives 0.2% (n = 280,000). Potency, µM (series often up to 53.9 µM), for inactives: at the highest dose GFP activation, actives largely listed as activators; note: potency is the fitted concentration of half-maximal effect; % of control where 0% means no effect; nearly all actives have a fitted effect of over 60% in size
#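 Derepression of a silenced CMV-GFP reporter in murine LDR cells is scored by enumerating GFP-positive cells with a laser-scanning microplate cytometer after 30 hours of treatment at 37 C.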
# NPSR antag – blocks cAMP signaling of the human neuropeptide S receptor. Q6W5P4. AID 1461. actives 1% (n = 220,000). CHO-NPSR cells, cAMP TR-FRET, antagonist mode. Potency, µM (titrated, usually from 38.3 µM), inactives show top-dose activity change, negative = inhibition, actives largely listed as inhibitors; note: potency is the fitted concentration of half-maximal effect; % is set by controls: 0 for no effect and ±100 for the full control effect; nearly all actives have a fitted effect of over 50% in size; many of its hits are not listed in these tables
# LMNA splice mod – LMNA splicing modulation | HeLa LMNA splicing GFP/RFP minigene ratio, 48 h | Potency, µM (top dose mostly 46.1 µM), without a hit: at the highest dose ratio change, negative = inhibition, hits mostly inhibitors | actives 0.01% (n = 200,000) | AID 1487; active = well fitted inhibition curve with a large enough effect in the signal ratio, with a control signal flat, not every such curve was filed as active; inconclusive = small, poorly fitted or top-dose-only effect, or effect the other way, or a change in a side signal; the % refers to the signal ratio; note: potency is the fitted concentration of half-maximal effect; % is set by controls: 0 for no effect and ±100 for the full control effect
#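 Read-out is the ratio of GFP to DsRed2 object intensity, acquired by 488 nm laser-scanning cytometry on HeLa lamin A-EGFP minigene reporter cells. Compound incubation 48 hrs at 37 °C in Opti-MEM with 2% FBS; DMSO 0.5% final.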
# An asterisk follows results filed as active; ? = inconclusive; . = not tested or not shown; & = joins results of further samples; [ ] = another dose, or the depositor's remark. Unless noted, calls come from the whole dose curve; as a rule, active = well fitted curve in the direction sought with a large enough effect; inconclusive = small, poorly fitted or top-dose-only effect, or another doubt; inactive = no such curve, though single readings can be large; an effect the other way counts as inactive or inconclusive. This is a subset; count on the stated rates, not on these rows.
# The line under a structure holds: CBFb-RUNX1 inh, GLA spleen mod, Luc counter, Epigenetic derep, NPSR antag, LMNA splice mod
- CC(C(=O)NN=C(c1ccccc1)c1ccccc1)N1CCCC1 (centres undefined)
 : -3%, -3%, -2%, -0.3%, 4%, ?
- CCN(c1ccccc1)S(=O)(=O)c1ccc(C(=O)NCC(c2cccs2)N(C)C)cc1 (centres undefined)
 : 5%, 2%, 0%, -2.9%, -19%, .
- O=C(c1nnsc1S(=O)c1ccc(Cl)cc1)N1CCOCC1 (centres undefined)
 : 1%, -2%, -1%, 0.0%, -6%, -19%[9.22 µM]
- O=C(NCc1ccccc1Cl)c1ccccc1Oc1ccccc1
 : ?, -6%, -2%, -1.0%, -52%, 8%
- Cc1cc(C)n(CC(=O)N/N=C/c2cc(Br)cc([N+](=O)[O-])c2O)n1
 : 3%, 0%, -8%, -1.7%, -22%, .
- CC(C)(C)NC(=O)CON=C1c2ccccc2-c2ccccc21
 : ?, 2%, 3%, 3.9%, -17%, ?
- CC/C(=N\n1nnnc1Nc1ccccc1)c1ccccc1
 : 1%, -4%, 2%, -0.8%, -16%[46.1 µM], ?
- CCOCCCNC(=S)NCCCNc1nc2c(C)c(C)ccc2cc1C#N
 : 3%, -4%, 1%, 4.6%, 0%, ?
- O=C(Nc1cccnc1)c1cccc(F)c1
 : -8%, 6%, 1%, 0.0%, 16%, 1%
- CN(C(=S)SCc1ccccc1)C1CCS(=O)(=O)C1 (centres undefined)
 : 8%, 3%, 5%, -0.1%, 5%, -8%[46 µM]
- Cc1cc(C)n(C(=O)C(C)n2nc([N+](=O)[O-])c(Br)c2C)n1 (centres undefined)
 : 2%, 2%, -1%, -1.0%, 17%, -10%
- COc1ccc(CN2CCN(Cc3nc4ccccc4s3)CC2CCO)c(C)c1C (centres undefined)
 : -4%, 7%, -1%, 1.5%, 21%, .
- O=C(OC1CCCCC1)c1ccc2c(c1)C1C=CCC1C(C(=O)O)N2 (centres undefined)
 : ., -6%, -4%, -7.2%, -12%[46.1 µM], -8%
- O=C(O)c1ccc(Cl)c(S(=O)(=O)Nc2ccccc2N2CCOCC2)c1
 : 7%, -14%, 9%, 1.5%, 3%, ?
- CCCNCC(O)COc1ccccc1C(=O)CCc1ccccc1 (centres undefined)
 : 3%&18%&5%&8%&11%, 2%&10%&15%&-1%&5%, 0%&-8%&-1%, 1.1%&-1.2%&0.0%&0.0%&-0.5%, -13%, ?
- Cc1cc2n(c(=O)c1C#N)CCCN2c1ccccc1
 : 5%, 5%, 0%, -1.2%, -1%[46.1 µM], -6%
- CC(=O)Nc1nc(CCN2C(=O)c3ccccc3C2=O)cs1
 : -10%, -1%, -1%, -0.3%, 3%, -2%[46 µM]
- O=C(O)COCCN1CCN([C@@H](c2ccccc2)c2ccc(Cl)cc2)CC1
 : 7%[21.7 µM], -5%[29.1 µM], 3%[17.1 µM], 1.1%[16.9 µM], ., -9%
- O=C(Cn1cnc2c(cnn2-c2ccccc2)c1=O)Nc1ccc(S(=O)(=O)N2CCOCC2)cc1
 : -2%, -6%, 2%, 1.0%, -12%[46.1 µM], ?
- COc1ccccc1NS(=O)(=O)c1cc(NC(=O)CCNC(C)=O)ccc1C
 : 3%, -3%, -1%, 0.1%, 7%, .
- CC1CCc2c(nc3ncnn3c2Nc2ccc(OC(F)(F)F)cc2)C1 (centres undefined)
 : 1%, -1%, 4%, -0.8%, -5%[46.1 µM], -17%
- O=C(Nc1ccccc1)c1ccccc1NS(=O)(=O)c1ccc(Cl)s1
 : -5%, 1%, 4%, -0.8%, 16%[46.1 µM], ?
- Cc1cc(/C=C\c2ccc3cc(N(C)C)ccc3[n+]2C)c(C)n1-c1ccccc1
 : -23%[21.7 µM], -1%[29.1 µM], -29%[17.1 µM], 11%[16.9 µM], ., ?
- COC(=O)c1ccc(N=C2S/C(=C\c3cc(C)n(-c4cccnc4)c3C)C(=O)N2C)cc1
 : -1%, -11%, 0%, -1.4%, ?, 6%
- CCc1ccc(OCc2nnc(SCc3ccc(C(=O)O)cc3)o2)cc1
 : -14%, -11%, -2%, 0.0%, 4%, -9%[46 µM]
- O=C1OCCN1/N=C/c1ccc([N+](=O)[O-])o1
 : 1%&13%, 12%&13%, -2%&-10%, -2.3%&1.3%, 7%, ?
- O=C(O)c1ccc2c(c1)CC(c1ccccc1)OC2=O (centres undefined)
 : 2%, -5%, -2%, 0.5%, -21%[46.1 µM], 9%
- CSc1ccccc1NC(=O)c1cc(CC(C)C)on1
 : -4%, -3%, -3%, -0.8%, 1%[46.1 µM], -14%
- CSC1=C(C#N)C(c2ccccc2Cl)C(C(C)=O)=C(C)N1 (centres undefined)
 : 2%, 7%, 1%, -0.8%, -3%[46.1 µM], -5%

# Three entries already listed, arranged by molecular weight, ascending.
# The line under a structure holds: CBFb-RUNX1 inh, GLA spleen mod, Luc counter, Epigenetic derep, NPSR antag, LMNA splice mod
- CCc1ccc(OCc2nnc(SCc3ccc(C(=O)O)cc3)o2)cc1
 : -14%, -11%, -2%, 0.0%, 4%, -9%[46 µM]
- COC(=O)c1ccc(N=C2S/C(=C\c3cc(C)n(-c4cccnc4)c3C)C(=O)N2C)cc1
 : -1%, -11%, 0%, -1.4%, ?, 6%
- O=C(Cn1cnc2c(cnn2-c2ccccc2)c1=O)Nc1ccc(S(=O)(=O)N2CCOCC2)cc1
 : -2%, -6%, 2%, 1.0%, -12%[46.1 µM], ?

# Some of the entries so far, with tabs:
Structure	CBFb-RUNX1 inh	GLA spleen mod	Luc counter	Epigenetic derep	NPSR antag	LMNA splice mod
CCc1ccc(OCc2nnc(SCc3ccc(C(=O)O)cc3)o2)cc1	-14%	-11%	-2%	0.0%	4%	-9%[46 µM]
O=C1OCCN1/N=C/c1ccc([N+](=O)[O-])o1	1%&13%	12%&13%	-2%&-10%	-2.3%&1.3%	7%	?
O=C(O)c1ccc2c(c1)CC(c1ccccc1)OC2=O (centres undefined)	2%	-5%	-2%	0.5%	-21%[46.1 µM]	9%
CSc1ccccc1NC(=O)c1cc(CC(C)C)on1	-4%	-3%	-3%	-0.8%	1%[46.1 µM]	-14%
